T cruzi repl – inhibitors of intracellular T. cruzi growth, primary screen, luminescence, NIH3T3 host cells. inhibition, % (test concentration not listed). AID 1885, 2009. T. cruzi beta-gal in NIH3T3, 90 h. 1.4% of 300,000 active;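 active = mean inhibition across valid replicates above about 55%, limit read from the data; inconclusive = mean below that limit but half or more replicates reach it; inactive = mean below it, under half of replicates reach it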;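 note: signal also drops with host cell toxicity which is not excluded here; 0% = plate median of DMSO wells and 100% = zero luminescence signal; higher percent means less beta-gal luminescence so fewer parasites; stock transfer was 50 nL into about 50 µL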
LANA-H2A inh – blockers of LANA interaction with H2A/H2B – biochemical, FP readout, HTS, primary screen; Protein LANA1 (Human herpesvirus 8 type P (isolate GK18)), Q9QR71; cell-free LANA-H2A/H2B peptide, fluorescence polarization; inhibition, % (test concentration not listed); 0.6% of 320,000 active; AID 2629, 2010; in the data active = inhibition mostly above about 10%, no sharp cut-off; inactive = mostly below about 6.7%;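 note: stock transfer was 7.5 nL into about 10 µL; 0% = median of vehicle wells and 100% = median of positive control wells; one replicate is shown; the record names a cut of 25% in any replicate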
Target sequence (Q9QR71 whole entry, looked up): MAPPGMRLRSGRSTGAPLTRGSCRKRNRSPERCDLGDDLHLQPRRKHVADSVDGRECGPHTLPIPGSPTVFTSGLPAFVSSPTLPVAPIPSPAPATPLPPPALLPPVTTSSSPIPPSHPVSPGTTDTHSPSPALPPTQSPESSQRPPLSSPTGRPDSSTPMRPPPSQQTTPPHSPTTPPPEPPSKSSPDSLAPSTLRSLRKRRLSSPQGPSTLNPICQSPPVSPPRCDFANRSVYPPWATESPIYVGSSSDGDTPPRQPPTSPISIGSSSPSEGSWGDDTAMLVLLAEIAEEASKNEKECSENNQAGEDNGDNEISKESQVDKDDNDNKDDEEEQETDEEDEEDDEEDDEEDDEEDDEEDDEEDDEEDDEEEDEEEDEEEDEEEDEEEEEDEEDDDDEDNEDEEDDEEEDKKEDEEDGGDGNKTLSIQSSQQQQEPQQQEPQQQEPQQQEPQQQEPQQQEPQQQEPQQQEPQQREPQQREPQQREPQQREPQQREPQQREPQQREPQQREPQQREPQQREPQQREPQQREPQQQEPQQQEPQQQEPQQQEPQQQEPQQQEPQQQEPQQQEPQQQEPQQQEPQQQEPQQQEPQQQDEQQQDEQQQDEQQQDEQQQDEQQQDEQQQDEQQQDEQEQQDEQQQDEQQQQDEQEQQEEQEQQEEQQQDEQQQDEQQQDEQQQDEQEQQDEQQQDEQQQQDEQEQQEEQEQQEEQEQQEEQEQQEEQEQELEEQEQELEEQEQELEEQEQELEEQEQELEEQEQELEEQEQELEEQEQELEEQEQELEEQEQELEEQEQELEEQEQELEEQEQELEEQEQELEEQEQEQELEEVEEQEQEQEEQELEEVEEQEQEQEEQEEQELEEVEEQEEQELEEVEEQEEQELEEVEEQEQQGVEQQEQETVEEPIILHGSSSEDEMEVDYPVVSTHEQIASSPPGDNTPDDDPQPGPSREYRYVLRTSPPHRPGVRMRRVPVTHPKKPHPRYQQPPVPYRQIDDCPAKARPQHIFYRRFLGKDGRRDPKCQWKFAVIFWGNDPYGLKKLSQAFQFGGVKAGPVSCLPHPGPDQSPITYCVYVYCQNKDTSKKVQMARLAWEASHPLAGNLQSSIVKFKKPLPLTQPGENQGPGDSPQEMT
RanGTP-Impb inh – inhibitors of RanGTP-importin-beta interaction, primary screen, biochemical, FRET, CFP-Ran, YFP-importin-beta, homogeneous. inhibition, % (no concentration beside the values). 1.1% of 300,000 active. cell-free CFP-Ran/YFP-importin-beta FRET ratio. Ran GTPase (GTP-bound) - importin-beta complex. AID 2216, 2009;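 active = most replicates above 15%; inconclusive = exactly half above 15%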;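 note: 0% = DMSO wells and 100% = Ran loaded with GDP instead of GTP; wells of about 40 µL received 100 nL stock; the first replicate is given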
UCH37 DUB inh – inhibitors of human UCH37 deubiquitinase, primary screen, biochemical, Ub-AMC cleavage, fluorescence | Ubiquitin carboxyl-terminal hydrolase isozyme L5 (Homo sapiens), Q9Y5K5 | purified proteasome/UCH37 | inhibition, % (concentration not given with the values) | 0.33% of 330,000 active | AID 588478, 2011;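 active = mean of two replicates above 20%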;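 note: 0% = compound-free wells with enzyme and 100% = wells lacking proteasome; stock transfer was 100 nL into about 20 µL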
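Material: human UCH37 enzyme supplied as purified proteasome complex. Measure: % inhibition of Ub-AMC cleavage fluorescence. Medium: pH 7.4 Tris-HCl (50 mM) with ovalbumin, ATP-MgCl2, DTT. Times: 30 min preincubation with enzyme, 25 min cleavage at room temperature. Detection: AMC fluorescence intensity at 355/460 nm.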
Beta cell apopt – inhibitors of cytokine-induced beta cell apoptosis, primary screen, luminescence | INS-1E cytokine-induced death, ATP luminescence, 48 h; percent of positive-control rescue, neutral wells zero | protection from apoptosis, % (concentration not given with the values) | 0.8% of 300,000 active;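 active = all replicates at 75% or more, or half of them and the mean; inconclusive = half reach 75% but not the mean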;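 note: 0% = cytokine-treated negative control wells and 100% = positive control rescue; higher means more ATP so stronger rescue from cytokine killing; wells of about 40 µL received 100 nL stock; the first replicate is given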
A1 inh – caspase 3/7 activation in MEF A1-2A-BIM cells, primary screen, A1 inhibitor project, cell-based, luminescence, HTS; Caspase-Glo 3/7 luminescence, 3 h; percent of clofoctol response, vehicle zero; caspase activation, % (concentration not given with the values); 0.066% of 330,000 active; AID 2462, 2010;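 active = over half of replicate activation scores above 10%, or exactly half above 10 with the replicate mean above 10; inconclusive = replicate mean below 10 yet half the replicates above 10; inactive = over half of replicates below 10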;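 note: wells of about 30 µL received 50 nL stock; many hits fall short of the cut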
Beta2AR agonist – beta2AR agonists driving receptor internalization, primary screen, cell-based, FAP fluorogen, flow cytometry. Beta-2 adrenergic receptor (Homo sapiens), P07550. Am2.2-beta2AR cells; reference of the scale not given here. response, % (no concentration beside the values). 0.43% of 340,000 active. AID 504454, 2011;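 active = response above a set limit, near 3 SD of response in nonfluorescent compounds, cut at about 42% in these data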;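 note: stock transfer was 100 nL into about 11 µL; a reference agonist was the positive control; negative values mostly stem from fluorescent compounds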
Calb FLC – C. albicans growth inhibition with fluconazole, primary screen, CaCi-2 strain, Alamar Blue fluorescence; C. albicans CaCi-2 (fluconazole-resistant clinical isolate) + fluconazole, 48 h; growth inhibition, % (no concentration beside the values); 0.57% of 300,000 active;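 active = most replicates above 75%; inconclusive = exactly half above 75%; inactive = most below 75%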;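 note: all wells also contain fluconazole at 8 µg/ml as a sub-toxic cotreatment; 0% = median of DMSO wells and 100% = median of geldanamycin control wells; wells of about 8 µL received 7.5 nL stock; the first replicate is given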
The depositor's hits bear a star; ? = inconclusive; . = no result given. Hits appear at their usual frequency; 4.3% or so of the library scored in one or more.

entry | compound | Calb FLC | Beta cell apopt | Beta2AR agonist | A1 inh | UCH37 DUB inh | RanGTP-Impb inh | T cruzi repl | LANA-H2A inh
1 | Cc1nn(C2CCS(=O)(=O)C2)c(C)c1CN(C)C(=O)c1ccc(Cl)cc1 (configuration not stated) | . | 2 | -4 | -0.4 | 2.8 | . | . | -1.8
2 | CCOc1ccc(NC(=O)CN2C(=O)CCSc3ccc(S(=O)(=O)N4CCCC4)cc32)cc1 | 22 | -2 | 2 | -0.1 | -1.7 | 4.9 | 29 | 1.6
3 | CCN(CC)CCN(C(=O)C1CCCCC1)c1nc2cc3c(cc2s1)OCO3 | -13 | -1 | 6 | -0.6 | 0.6 | -0.3 | 61* | -1.4
4 | CC(O)CNCCCOc1cccc(Oc2ccccc2)c1 (configuration not stated) | -16 | 2 | -6 | 0.4 | 7.6 | 0.6 | -2 | -10
5 | CCOC(=O)C1CCN(C(=O)C(CCSC)NC(=O)COc2ccccc2)CC1 (configuration not stated) | . | -12 | 8 | 1.9 | 4.6 | . | . | 1.5
6 | O=C(CNC(=O)c1ccccc1Br)N/N=C/c1ccc(O)cc1 | 1 | -3 | 7 | 0.9 | . | 1.4 | 7 | 0.9
7 | C=CCn1c(COc2cccc(C)c2)nnc1SCn1nnc2ccccc2c1=O | -4 | -1 | -13 | 0.3 | 0.7 | 14 | -2 | 8.6
8 | O=C(NCc1nc2ccccc2[nH]1)c1ccc(S(=O)(=O)N2CCOCC2)cc1 | 2 | -3 | -5 | -2.7 | 2.9 | -4.3 | 0 | 6.2
9 | CCC(=O)c1ccc(OCC(=O)OCC(=O)c2cc(C)n(C)c2C)cc1 | -2 | -6 | 1 | 0.7 | 1.5 | -4.3 | -8 | -8.5
10 | COc1ccc(NC(=O)CSc2nc3ccccc3c(=O)n2CCCC(=O)NCC2CCCO2)c(OC)c1 (configuration not stated) | 0 | -2 | -7 | 1.3 | 2.4 | -0.6 | 3 | 0.4
11 | CC(=O)Nc1ccc(NC(=O)c2sc3nc4c(c(-c5ccc(C)cc5)c3c2N)CCC4)cc1 | 10 | -9 | 2 | -0.1 | -192 | -3.9 | ? | 1.4
12 | NS(=O)(=O)c1ccc(NC(=O)COC(=O)/C=C/c2ccc([N+](=O)[O-])cc2)cc1 | 1 | -1 | -1 | 0.4 | 3.7 | 2.0 | -2 | 3.3
13 | COCc1ccc(C(=O)NC2CC(C)(C)Cc3c2cnn3-c2ccc(C)cc2)o1 (configuration not stated) | -5 | -4 | 1 | 0.5 | -0.5 | 11 | ? | 1.6
14 | CNCCCOc1cccc(OC(C)C)c1 | -84 | -7 | 6 | 0.6 | . | 7.5 | 23 | -4.7
15 | CCOc1c(Br)cc(/C=C2\N=C(C)OC2=O)cc1Br | 4 | -5 | 5 | -0.8 | 1.7 | 0.7 | -7 | -0.3
16 | CC(C)C(=O)c1cc2c(cc1NC(=O)c1ccccc1)OCCO2 | 5 | 3 | -14 | -0.4 | -18 | -1.2 | 23 | -3.7
17 | CN1C2C(Br)CCCCN2c2ccc(F)cc2S1(=O)=O (configuration not stated) | 0 | -10 | 7 | 1.9 | -6.1 | 6.6 | 7 | -7.1
18 | COc1cccc(-c2c(C(=O)N/N=C(\C)c3ccc(Cl)s3)nnn2-c2nonc2N)c1 | 0 | 4 | 5 | -0.5 | . | 6.5 | 7 | -5.2
19 | C/C(=N/NC(=O)CN1CCN(Cc2ccccc2Cl)CC1)c1ccco1 | -2 | 1 | -1 | 0.5 | . | 5.3 | 21 | 0.3
20 | O=C(NNS(=O)(=O)c1ccccc1)Nc1ccc(F)cc1 | -6 | -1 | 3 | 0.2 | 1.3 | 5.6 | -3 | 3.2
21 | CN(Cc1nc(-c2ccncc2)no1)S(=O)(=O)c1ccc(Cl)cc1 | -11 | 5 | 0 | -1.1 | 3.3 | 4.1 | 32 | -3.2
22 | O=C(Nc1cccc(F)c1)c1cc(-c2ccco2)nc2ccccc12 | -2 | 2 | 5 | -1.6 | -47 | -0.8 | -5 | 4.4
23 | COc1cccc(CNC(=O)CCS(=O)(=O)c2ccccc2Cl)c1 | . | -5 | 3 | -0.6 | -0.2 | . | . | .
24 | Nc1c(-c2ccc(Cl)cc2)cnn1-c1cccc(C(F)(F)F)c1 | -8 | 5 | -1 | 0.7 | -1.6 | -0.8 | 6 | 3.5
25 | O=C(O)c1ccc(CNc2ccccc2C(=O)O)cc1 | 21 | -2 | 5 | 0.5 | -44 | 7.3 | -7 | -6.0
26 | Cc1ccc(NC(=O)CSC2=C(C#N)C(c3ccco3)C3=C(CCCC3=O)N2)cc1 (configuration not stated) | -3 | -12 | 2 | -3.4 | -0.6 | ? | 4 | 0.2
27 | CCCCCOC(=O)C1=C(C)Nc2nnnn2C1c1ccccc1Cl (configuration not stated) | 47 | 10 | -2 | 0.3 | -0.5 | 0.6 | 11 | -1.4
28 | COc1ccc(NC(=O)NNC(=O)c2ccc3ccccc3c2)cc1OC | -1 | 4 | 8 | 0.0 | 2.5 | 3.2 | 6 | -1.7
29 | COc1ccc(NC(=O)C(CC(=O)O)Cc2ccc(Br)cc2)cc1 (configuration not stated) | -29 | -1 | -3 | 0.3 | . | 3.3 | -9 | 6.8
30 | COC(=O)[C@]1(C)N[C@H](c2ccc(-c3ccc(Cl)c(Cl)c3)c(OC)c2)[C@@H]2C(=O)N(C)C(=O)[C@@H]21 | 19 | -4 | 8 | 0.1 | -1.3 | 1.5 | 12 | 2.3
31 | O=S(=O)(Nc1cccc(F)c1)c1cccc2nsnc12 | 22 | -8 | 7 | -0.4 | 6.8 | 2.3 | 1 | 0.6
32 | CCOc1ccccc1CNC(=O)CCc1cn(CC)c2ccccc12 | -16 | -1 | -3 | -0.5 | -0.5 | -4.7 | 8 | -1.0
33 | O=C(CCNc1cccc(Cl)c1)c1cccs1 | 0 | -10 | 7 | -2.4 | 4.2 | 0.9 | 0 | 0.6
34 | COCCn1nnnc1CN(CCc1ccccc1)Cc1cc2cc(OC)ccc2[nH]c1=O | ? | -5 | -11 | 1.5 | -51 | -6.7 | 8 | 5.2
35 | O=C(Nc1ccccc1)c1cc2ccccc2[nH]1 | 29 | 2 | 3 | -9.7 | 3.8 | 0.3 | 36 | -1.9
36 | COc1ccc(/C=C2\C(=O)ON=C2c2cccc([N+](=O)[O-])c2)cc1 | -6 | -13 | . | -1.1 | 4.2 | 6.1 | -9 | 7.3
37 | O=C(NCC1CC1)C1(C(F)(F)F)CC(CCc2ccccc2)CCCO1 (configuration not stated) | -15 | 0 | -4 | -0.4 | 0.9 | 12 | 2 | 2.7
38 | COc1ccc(CCC(=O)Nc2ccc(Br)cn2)cc1 | 10 | -11 | 5 | -0.2 | 2.5 | 3.3 | -5 | -1.0
39 | O=C(COc1ccc([N+](=O)[O-])cc1)NNC(=O)Nc1ccccc1F | -1 | -2 | 1 | 1.3 | 1.8 | -0.4 | 0 | -1.6
40 | CC(C)C(=O)NCCc1nc(-c2ccccc2Cl)no1 | -4 | 1 | -7 | -0.2 | 3.7 | 5.5 | 14 | -2.2
41 | Cc1ccc(NC(=S)NNC(=O)c2cccc([N+](=O)[O-])c2)cc1Cl | 17 | 4 | 4 | -0.6 | 0.6 | 3.3 | -28 | -5.9
42 | COc1ccc(NC(=O)CN2C(=O)S/C(=C/c3cccn3-c3ccc(C(=O)O)cc3)C2=O)cc1 | 32 | -2 | 0 | 2.2 | . | . | . | 1.2
43 | Cc1c(NC(=O)CN2CCCC(C)C2)ccc2nsnc12 (configuration not stated) | 20 | -2 | -5 | 0.7 | 1.8 | -2.8 | -8 | 2.4
44 | Cc1ccc(C(=O)CCC2CCCCC2=O)cc1 (configuration not stated) | -26 | 1 | 1 | -0.3 | 3.7 | 3.8 | -3 | 2.1
45 | COc1ccc(OC)c(NC(=O)c2cc3oc4ccccc4c3cc2O)c1 | -6 | -5 | 3 | 0.3 | . | 3.7 | 10 | -3.0
46 | O=C1CN(C(=O)CSc2ccccn2)c2ccccc2N1 | . | -2 | 11 | 0.4 | 3.8 | . | . | -4.4
47 | COc1ccc(-c2nc(N)n(S(=O)(=O)c3ccc(C)cc3)n2)cc1 | 7 | -8 | -9 | 1.3 | 2.8 | 9.3 | -10 | 1.2
48 | CC(C)C(c1nnnn1C1CCCCC1)N1CCN(C(=O)c2ccco2)CC1 (configuration not stated) | -11 | -1 | 3 | 0.1 | 3.9 | 3.8 | -12 | -0.5
49 | COc1ccc(O)c(/C=N/N2CCCCC2)c1 | 2 | 0 | 0 | -7.1 | . | 5.7 | 10 | 3.5
50 | N#C/C(C(=O)N1CCCCC1)=C1/N=C(NC(=O)c2ccc(F)cc2)c2ccccc21 | -7 | -6 | 5 | 0.1 | 3.4 | 6.6 | 6 | 0.9
51 | COc1ccc(N2CCN(CCNC(=O)c3nnc(Cc4c(F)cccc4Cl)o3)CC2)cc1 | -15 | 0 | -6 | 0.1 | 1.3 | 0.7 | 25 | 0.3
52 | CCOc1ccc(N=c2oc3cc(O)ccc3cc2C(=O)NCC2CCCO2)cc1 (configuration not stated) | 18 | 10 | -21 | 1.3 | -193 | 184* | 28 | 2.5
53 | NC(=S)Nc1cccc2cnccc12 | 8 | -3 | -4 | 0.1 | 0.9 | 2.3 | -26 | -1.5
54 | Cc1ccccc1-n1ncc2c1CC(C)(C)CC2NC(=O)CSc1ccncc1 (configuration not stated) | -5 | 1 | 1 | 0.0 | 4.0 | 2.0 | 1 | 6.5
55 | Nc1nc(SCc2ccc(Br)cc2)[nH]c(=O)c1-c1ccccc1 | -9 | . | 3 | 0.3 | 0.2 | -1.0 | -12 | -0.4
56 | Cc1ccc(-n2c(N)c(C(=O)N3CCN(C)CC3)sc2=S)cc1 | 7 | -3 | 3 | 0.6 | 14 | 2.0 | 6 | -5.6
57 | CCc1ccc(Nc2nnc(SCC(=O)NCCN3C(=O)CSC3=O)s2)cc1 | 27 | 1 | -13 | -2.6 | 0.3 | 5.2 | -4 | -3.8
58 | Cc1cc(=O)[nH]c(N/N=C/c2ccc(C)o2)n1 | 8 | -6 | -2 | 0.1 | . | -1.5 | -3 | -0.9
59 | Cc1nn(Cc2ccc(F)cc2)c(C)c1NC(=O)c1noc2c1CCc1ccccc1-2 | 7 | -1 | 0 | 0.4 | 1.9 | 3.9 | 10 | -3.1
60 | Cc1ccccc1Nc1nc(N)nc(COC(=O)c2ccc([N+](=O)[O-])o2)n1 | . | -1 | -3 | 0.0 | 7.4 | . | . | -22

Bioassay records from PubChem BioAssay.
